Compound activity as filed in PubChem BioAssay.
DUX4 txn inh = inhibitors of DUX4-driven ZSCAN4 reporter expression, primary screen, 293T cells, Gaussia and Italica luciferase; activity change, negative = inhibition, % (concentration not given with the values); actives 0.8% (n = 37,000); 293T-iDUX4 ZSCAN4-Gaussia luciferase reporter, 24 h; hits give low values; AID 1224904, 2016;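 active = -10% or lower and over 25 points stronger than a control reporter; inconclusive = -10% or lower with a smaller gap; inactive = above -10%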;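 also: 0% = median of neutral control wells and -100% = median of positive control wells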
DUX4 txn inh difference = recorded beside DUX4 txn inh, whose call it bears; Gaussia minus Italica difference, %; measured here: selective DUX4 reporter inhibition;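 worked out from the two reporters; negative = selective loss of the DUX4 reporter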
DUX4 txn inh control = further read-out of DUX4 txn inh, marked with its call; activity change, negative = inhibition, %; measured here: Italica tet-on control reporter;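 0 = neutral control and -100 = positive control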
Starred values were filed as active, the others as inactive; ? = inconclusive; nt = no result given. Not all compounds are listed; count on the stated rates, not on these rows.

DUX4 txn inh	DUX4 txn inh difference	SMILES	DUX4 txn inh control
1.2	-1.4	O=C(c1ccccn1)N1C[C@H]2[C@@H](c3ccccc31)[C@@H](CO)N2C(=O)CC1CC1	2.6
-8.7	-4.2	COc1ccccc1-c1ccccc1[C@@H]1[C@@H](CO)N(C(=O)C2CCOCC2)[C@H]1C#N	-4.4
2.5	-2.1	C[C@H]1CN([C@@H](C)CO)C(=O)c2cccc(NC(=O)Nc3ccc(F)cc3)c2O[C@@H]1CN(C)Cc1ccc(-c2ccccc2)cc1	4.5
17.1	10.5	C[C@H](CO)N1C[C@H](C)[C@@H](CN(C)C(=O)[C@H]2CCCN2C)OCc2ccccc2-c2c(n(C)c3ccccc23)C1=O	6.6
4.8	0.2	COCC#Cc1cnc2c(c1)C(=O)N([C@H](C)CO)C[C@H](C)[C@H](CN(C)C(=O)CCN1CCCCC1)O2	4.6
-1.3	1.9	COCCN(C[C@H]1N[C@H](CO)[C@@H]1c1ccc(-c2cccc(F)c2)cc1)C(C)=O	-3.2
-2.4	-3.0	CC(=O)N1[C@@H]2CN(S(=O)(=O)c3cccc(C)c3)c3ccccc3[C@@H]2[C@@H]1CO	0.6
0.5	-2.8	CN1C(=O)c2cc(NS(=O)(=O)c3ccc(Cl)cc3)ccc2OC[C@H]2O[C@@H](CC(=O)N3CCc4ccccc4C3)CC[C@H]21	3.3
-1.1	-0.5	C[C@@H]1CCCCO[C@@H](CN(C)Cc2ccc(C(=O)Nc3ccccc3N)cc2)[C@@H](C)CN([C@H](C)CO)C(=O)c2cc(N(C)C)ccc2O1	-0.6
-7.3	-4.9	O=C(CC1CC1)N1CC(=O)N2[C@H](C1)[C@H](c1ccc(C#Cc3ccccc3)cc1)[C@@H]2CO	-2.3
11.8	10.4	COc1ccccc1CNC(=O)C[C@H]1C[C@H]2c3cc(N(C)C)ccc3O[C@H]2[C@@H](CO)O1	1.4
5.4	2.5	CCCN(C)C[C@H]1Oc2cc(C#Cc3cccnc3)ccc2S(=O)(=O)N([C@@H](C)CO)C[C@H]1C	2.9
-0.3	0.3	CCCNC(=O)[C@@H]1[C@@H](CO)[C@@H]2Cn3c(ccc(-c4ccccc4F)c3=O)[C@@H]2N1C(C)=O	-0.7
1.5	1.9	CCCNC(=O)Nc1ccc2c(c1)OC[C@@H](C)N(C(=O)C1CCOCC1)C[C@H](C)[C@H](OC)CN(C)C2=O	-0.3
22.3	15.5	CN(C)C(=O)c1cccc(-c2ccc3c(c2)[C@@H]2[C@@H](CCN2S(=O)(=O)c2cn(C)cn2)[C@@H](CO)N3)c1	6.8
-0.7	0.6	CNC[C@H]1OCCCC[C@@H](C)Oc2ccc(N)cc2C(=O)N([C@@H](C)CO)C[C@H]1C	-1.3
-1.2	0.9	COc1ccc(NC(=O)Nc2ccc3c(c2)C(=O)N([C@@H](C)CO)C[C@@H](C)[C@H](CN(C)S(=O)(=O)c2cccs2)OCCCC[C@@H](C)O3)cc1	-2.1
4.6	2.4	COc1ccccc1S(=O)(=O)N[C@H]1C=C[C@@H](CC(=O)NCc2cccc(F)c2)O[C@@H]1CO	2.2
0.3	0.6	N#C[C@@H]1[C@@H](c2ccc(-c3ccccc3F)cc2)[C@H](CO)N1C(=O)C1CCOCC1	-0.3
-0.2	1.6	C[C@H](CO)N1C[C@H](C)[C@@H](CN(C)C(=O)Nc2cccc(Oc3ccccn3)c2)OCc2cnnn2CCCC1=O	-1.7
0.2	-3.2	CC(C)NC(=O)N1[C@H](CO)[C@@H]2c3ccccc3N(C(=O)c3ccc(F)cc3)C[C@@H]21	3.4
0.1	-2.8	C[C@@H]1CN([C@H](C)CO)C(=O)c2cc(C3=CCCCC3)cnc2O[C@@H]1CN(C)CC1CCOCC1	2.9
?	nt	O=C(C[C@@H]1C[C@H]2c3cc(NC(=O)Nc4ccc(C(F)(F)F)cc4)ccc3O[C@H]2[C@H](CO)O1)NCC1CC1	nt
-2.0	-7.9	C[C@@H]1CN([C@H](C)CO)C(=O)c2ccccc2-c2ccccc2CO[C@H]1CN(C)C(=O)Nc1cccc(Cl)c1Cl	5.9
-4.3	-6.9	C[C@H](CO)N1C[C@H](C)[C@H](CN(C)C(=O)[C@H](Cc2ccccc2)N(C)C)OCc2ccccc2-c2ccccc2C1=O	2.6
3.6	3.6	CC(C)NC(=O)N1CC(=O)N2[C@@H](CO)[C@H](c3ccc(/C=C/c4ccccc4)cc3)[C@@H]2C1	0.0
13.4	7.8	CS(=O)(=O)Nc1ccc2c(c1)[C@H]1C[C@@H](CC(=O)NCc3cccc(F)c3)O[C@@H](CO)[C@H]1O2	5.7
14.2	3.4	COCC(=O)N1CC(=O)N2[C@H](CO)[C@@H](c3ccc(-c4ccccc4F)cc3)[C@H]2C1	10.8
-2.7	-1.6	CCNC(=O)C[C@H]1CC[C@H]2[C@@H](COc3ccc(NC(=O)Nc4cccc(C#N)c4)cc3C(=O)N2C)O1	-1.1
-3.4	-5.8	COc1ccc(NC(=O)N(C)C[C@@H]2Oc3ccc(NC(=O)C4CCCCC4)cc3CC(=O)N([C@@H](C)CO)C[C@@H]2C)cc1	2.5

The list goes on.
DUX4 txn inh	DUX4 txn inh difference	SMILES	DUX4 txn inh control
?	nt	C[C@H](NC(=O)C[C@H]1CC[C@@H]2[C@H](COC[C@H](O)CN2Cc2ccc(C(F)(F)F)cc2)O1)c1ccccc1	nt
16.0	16.2	Cc1ccc(S(=O)(=O)N2C[C@H](O)COC[C@@H]3O[C@@H](CC(=O)NCCN4CCCCC4)CC[C@H]32)cc1	-0.2
-1.0	-2.4	C[C@@H]1CN([C@H](C)CO)C(=O)c2cc(C3=CCCCC3)cnc2O[C@H]1CN(C)Cc1ccccc1C(=O)O	1.5
2.6	1.2	COc1ccc(S(=O)(=O)Nc2ccc3c(c2)C(=O)N([C@H](C)CO)C[C@H](C)[C@H](CN(C)CC2CC2)OCCCC[C@H](C)O3)cc1	1.4
?	nt	COc1cccc(-c2ccc3c(c2)[C@@H]2[C@@H](CCN2C(=O)c2ccccn2)[C@@H](CO)N3C)c1	nt
1.3	-4.4	CO[C@H]1CN(C)C(=O)c2cc(NS(C)(=O)=O)ccc2OC[C@@H](C)N(Cc2nccs2)C[C@H]1C	5.7
-1.5	-3.3	CN1[C@@H]2c3ccc(-c4ccccc4)c(=O)n3C[C@H]1[C@H](CO)[C@H]2C(=O)Nc1nccs1	1.8
-1.2	-2.9	C[C@@H]1CN([C@H](C)CO)C(=O)c2cccc(NC(=O)CCCCCC(=O)Nc3ccccc3N)c2O[C@H]1CN(C)Cc1ccc(Cl)c(Cl)c1	1.7
15.4	9.9	COc1cccc(NC(=O)N2C[C@@H](O)COC[C@@H]3O[C@@H](CC(=O)NCc4ccccc4F)CC[C@H]32)c1	5.4
-3.2	2.6	CCCNC(=O)N1[C@H](CO)[C@@H](c2ccccc2-c2cccc(C)c2)[C@@H]1C#N	-5.9
4.3	5.0	O=C(C[C@@H]1CC[C@@H]2[C@H](COC[C@@H](O)CN2C(=O)c2ccccc2)O1)NCCCN1CCOCC1	-0.7
10.7	10.6	Cc1ccc(S(=O)(=O)N[C@H]2C=C[C@@H](CC(=O)NC3CCCCC3)O[C@@H]2CO)cc1	0.1
-3.0	-0.3	O=C(C[C@@H]1C[C@H]2c3cc(NC(=O)NC4CCCC4)ccc3O[C@H]2[C@H](CO)O1)NCc1ccc2c(c1)OCO2	-2.7
-6.9	-0.9	CCCN1[C@H](C(=O)N(C)C)[C@@H](CO)[C@@H]2Cn3c(ccc(/C=C/c4ccccc4)c3=O)[C@@H]21	-6.0
-3.4	-6.3	CN1C(=O)c2cc(NS(=O)(=O)c3ccc(Cl)cc3)ccc2OC[C@H]2O[C@H](CC(=O)N3CCc4ccccc4C3)CC[C@@H]21	2.9
6.5	2.9	CC(=O)N1[C@H](CO)[C@@H](c2ccc(-c3ccccc3F)cc2)C12CN(CC1CCOCC1)C2	3.5
-2.8	6.0	CC(C)NC(=O)NCC[C@H]1CC[C@H](NS(=O)(=O)c2ccc(Oc3ccccc3)cc2)[C@H](CO)O1	-8.8
5.6	5.3	C[C@H]1CN([C@@H](C)CO)C(=O)c2cc(NC(=O)Cc3ccccc3)ccc2O[C@H]1CN(C)S(C)(=O)=O	0.3
6.2	3.4	C[C@@H]1CN([C@H](C)CO)C(=O)c2c(c3ccccc3n2C)-c2ccccc2CO[C@@H]1CN(C)S(=O)(=O)c1ccc(C#N)cc1	2.8
4.3	5.5	C[C@@H]1CN([C@H](C)CO)C(=O)CCCn2cc(nn2)CO[C@H]1CN(C)C(=O)Nc1cccc(Oc2ccccn2)c1	-1.2
12.0	7.4	CCCNC(=O)[C@H]1[C@H](CO)[C@H]2Cn3c(ccc(-c4ccccc4)c3=O)[C@H]2N1CC	4.5
-3.4	-8.6	O=C(C[C@H]1C[C@H]2c3cc(NC(=O)c4cccnc4)ccc3O[C@H]2[C@H](CO)O1)NCCc1ccccc1	5.2
-2.6	-3.1	C[C@H]1CC=CC[C@H](c2ccc(F)cc2)NC(=O)[C@H](Cc2ccccc2)N(C)C(=O)c2ccccc2O1 (mixture of isomers)	0.6
2.5	2.6	CCCNC(=O)N1[C@@H](C#N)[C@H](c2ccc(C#Cc3ccc(F)cc3)cc2)[C@@H]1CO	-0.1
4.4	3.1	COc1ccc(-c2ccc([C@H]3[C@@H](CO)N4C(=O)CNC[C@@H]34)cc2)cc1	1.3
1.0	6.4	CN(C)CC#Cc1ccc([C@@H]2[C@H]3CN(C(=O)Nc4cc(F)ccc4F)CCCCN3[C@H]2CO)cc1	-5.4
-3.6	-5.4	CCCN1C[C@@H](C)[C@@H](OC)CN(C)C(=O)c2ccc(NC(=O)C3CCOCC3)cc2OC[C@@H]1C	1.8
10.2	9.2	COc1cccc(NC(=O)N(C)C[C@@H]2OCc3ccccc3-c3ccccc3C(=O)N([C@@H](C)CO)C[C@H]2C)c1	1.0
4.2	-1.4	CO[C@H]1CN(C)C(=O)c2cc(NS(C)(=O)=O)ccc2OC[C@H](C)N(CC2CCOCC2)C[C@H]1C	5.5
-0.4	-6.1	COc1ccccc1-c1cnc2c(c1)C(=O)N([C@H](C)CO)C[C@H](C)[C@H](CN(C)Cc1cncnc1)O2	5.7

Entries above containing a CF3 group:
DUX4 txn inh	DUX4 txn inh difference	SMILES	DUX4 txn inh control
?	nt	O=C(C[C@@H]1C[C@H]2c3cc(NC(=O)Nc4ccc(C(F)(F)F)cc4)ccc3O[C@H]2[C@H](CO)O1)NCC1CC1	nt
?	nt	C[C@H](NC(=O)C[C@H]1CC[C@@H]2[C@H](COC[C@H](O)CN2Cc2ccc(C(F)(F)F)cc2)O1)c1ccccc1	nt

In the list so far, two contain two or more sulfur atoms.
DUX4 txn inh	DUX4 txn inh difference	SMILES	DUX4 txn inh control
-1.2	0.9	COc1ccc(NC(=O)Nc2ccc3c(c2)C(=O)N([C@@H](C)CO)C[C@@H](C)[C@H](CN(C)S(=O)(=O)c2cccs2)OCCCC[C@@H](C)O3)cc1	-2.1
1.3	-4.4	CO[C@H]1CN(C)C(=O)c2cc(NS(C)(=O)=O)ccc2OC[C@@H](C)N(Cc2nccs2)C[C@H]1C	5.7

Ordered by molecular weight (rising): 3 of the compounds above
DUX4 txn inh	DUX4 txn inh difference	SMILES	DUX4 txn inh control
3.6	3.6	CC(C)NC(=O)N1CC(=O)N2[C@@H](CO)[C@H](c3ccc(/C=C/c4ccccc4)cc3)[C@@H]2C1	0.0
6.5	2.9	CC(=O)N1[C@H](CO)[C@@H](c2ccc(-c3ccccc3F)cc2)C12CN(CC1CCOCC1)C2	3.5
0.1	-2.8	C[C@@H]1CN([C@H](C)CO)C(=O)c2cc(C3=CCCCC3)cnc2O[C@@H]1CN(C)CC1CCOCC1	2.9

Additional records.
DUX4 txn inh	DUX4 txn inh difference	SMILES	DUX4 txn inh control
5.6	0.3	O=C(C[C@@H]1CC[C@H]2[C@@H](COC[C@@H](O)CN2C(=O)c2ccccc2F)O1)N1CCCCC1	5.3
-4.4	-7.0	CN1C(=O)c2cc(NC(=O)c3cccc(F)c3)ccc2OC[C@@H]2O[C@H](CC(=O)Nc3ccccc3)CC[C@@H]21	2.6
4.9	-1.3	CN1CCN(C(=O)C[C@@H]2CC[C@@H]3[C@H](COC[C@H](O)CN3S(=O)(=O)c3cccc(Cl)c3)O2)CC1	6.2
-5.5	-2.1	C[C@H](CO)N1C[C@H](C)[C@@H](CN(C)Cc2cccc(F)c2)Oc2ncc(C3=CCCC3)cc2C1=O	-3.4
4.2	-0.9	CS(=O)(=O)N1CC2(C1)[C@@H](c1ccccc1)[C@H](CO)N2Cc1ccc(F)cc1	5.1
1.9	-3.4	COC(=O)C[C@@H]1C[C@H]2c3cc(NC(=O)Cc4ccncc4)ccc3O[C@H]2[C@@H](CO)O1	5.3
-0.1	-1.9	CC(C)(O)C#Cc1cccc(-c2nc(C(=O)N[C@@H]3CCN(Cc4ccccc4)C3)cc3c2[C@@H](CCO)N(S(=O)C(C)(C)C)C3)c1 (stereo partly specified)	1.8
-3.7	-0.3	COc1ccccc1CNC(=O)C[C@H]1CC[C@H]2[C@@H](COC[C@@H](O)CN2Cc2ccccc2)O1	-3.4
0.7	3.9	COc1ccc(NC(=O)Nc2ccc3c(c2)C(=O)N([C@@H](C)CO)C[C@H](C)[C@@H](CN(C)Cc2ccncc2)OCCCC[C@@H](C)O3)cc1	-3.1
6.9	-1.8	O=C(C[C@H]1CC[C@H]2[C@@H](COC[C@@H](O)CN2S(=O)(=O)c2ccccc2F)O1)NCc1ccccc1Cl	8.7
0.2	4.5	CCC(=O)N1[C@H](C(=O)OC)[C@@H](CO)[C@@H]2Cn3c(ccc(-c4ccccc4F)c3=O)[C@@H]21	-4.3
3.1	-0.2	COCCNC(=O)C[C@H]1CC[C@H]2[C@@H](COc3ccc(NC(=O)c4cnccn4)cc3C(=O)N2C)O1	3.3
-0.5	-2.3	CNC(=O)C[C@H]1CC[C@H]2[C@@H](COc3ccc(NC(=O)CN(C)C)cc3C(=O)N2C)O1	1.8
2.1	-4.3	Cc1ccccc1S(=O)(=O)NCC[C@H]1CC[C@@H](NC(=O)Nc2cccc(F)c2)[C@H](CO)O1	6.3
